# Screening data from PubChem.
# S aureus helic: blocks Staphylococcus aureus DNA helicase | inhibition, %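 (tested at about 80 µM)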 | purified S. aureus helicase, fluorescence unwinding assay; about half of the hits fall short of the stated cut | 0.05% of 120,000 active;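 active means both duplicates at 50% or more, or one of them with a favoured structure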;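 further: 0% = mean of negative control wells and 100% = mean of positive control wells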
# MgrA DNA FP: alters Staphylococcus aureus MgrA binding to DNA | fluorescence polarization | inhibition, %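 (about 10 µg/mL by stock and volumes)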 | 0.13% of 84,000 active | AID 602314;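 active means above 50% in either of two replicates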;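 further: 0% = protein plus DNA without compound and 100% = DNA alone without protein; higher means less MgrA bound to DNA so lower polarization; one replicate is shown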
# An asterisk follows results filed as active; i = inactive; x = not tested or not shown. Some of the compounds tested; rates above refer to the full screens.
nr	mol	S aureus helic	MgrA DNA FP
1	O=C1CSCC(=O)N1c1ccc(Cl)cn1	x	-1.9
2	Cc1c(C#N)c(NC(=O)Cc2c(Cl)cccc2Cl)n(C2CCCCC2)c1C	-9	x
3	CC(=O)N1CCc2[nH]c3ccccc3c2C1	12	-0.2
4	CC(=O)NC12CC3CC(C1)CC(C(=O)OCC(=O)Nc1cc(C)nn1-c1ccccc1)(C3)C2	13	x
5	Brc1ccc(-c2nnc3sc(-c4cccs4)nn23)cc1	20	x
6	Cc1ccc2oc(-c3cccc(Cl)c3)nc2c1	x	0.9
7	CSc1sc(C(=O)O)c(C)c1C(C)O (stereo not drawn)	x	-3.1
8	CCN1CCN(C(=O)c2cccc(Nc3nc4ccccc4n4cnnc34)c2)CC1	-22	x
9	CCN(c1nc(C)cc(OC)n1)S(=O)(=O)c1ccc(C)cc1	7	1.2
10	O=C(Nc1ccccc1)OC1CCCC1	x	-1.8
11	CC(C)Cc1ccc(C(C)c2nc3ccccc3[nH]2)cc1 (stereo not drawn)	-6	-2.3
12	Nc1cccnc1-n1nc(C(F)(F)F)cc1C(F)(F)F	x	-0.8
13	CN(C)CCC(c1ccc(Cl)cc1)c1ccccn1 (stereo not drawn)	x	0.5
14	CSC(=NCCSC(C)(C)C)NC#N	x	0.0
15	CC(C)C1Nc2ccc(C(F)(F)F)cc2NC1=O (stereo not drawn)	-25	0.7
16	COc1cc(/C=C2\SC(=O)N(C)C2=O)ccc1Oc1ccc([N+](=O)[O-])cc1[N+](=O)[O-]	x	-1.3
17	Cc1nc(N)nc2[nH]c(=O)n(-c3ccccc3)c(=O)c12	15	0.0
18	CC(OC(=O)c1cccc(NS(C)(=O)=O)c1)C(=O)Nc1ccc(N2CCOCC2)cc1 (stereo not drawn)	-1	x
19	O=C(Nc1ccc(Oc2ccccc2)cc1)C1CCN(c2nc3ccccc3o2)CC1	27	x
20	CCOc1ccc(NC(=O)C/C(N)=N/O)cc1	7	-1.3
21	CC1CN(S(=O)(=O)c2ccc(NC(=O)CCS(=O)(=O)c3ccccc3)cc2)CC(C)O1 (stereo not drawn)	0	x
22	CCC(C)NC(=O)CCn1c(=O)c2cccn2c2ccc(F)cc21 (stereo not drawn)	23	x
23	CC(=O)Nc1sc(Cc2ccccc2)c(C)c1C(N)=O	1	1.6
24	CN(C)Cc1c(C(=O)N/N=C/CCc2ccccc2)nnn1-c1nonc1N	22	x
25	Cc1cccc(-c2nnc(NC(=O)c3c(F)cccc3F)s2)c1	20	x
26	NCC(c1ccccc1)c1c[nH]c2ccccc12 (stereo not drawn)	x	-0.3
27	COc1ccc(-c2nc(C#N)c(N3CCCC3)o2)cc1	4	x
28	O=C(c1ccc(CN2C(=O)CCn3nc(-c4ccccc4)cc32)cc1)N1CCN(c2ccccn2)CC1	-31	x
29	CC(C)CNC(=O)c1ccc(COCC(F)(F)C(F)F)o1	14	x
30	Cc1nn(CCOc2c(Cl)cccc2Cl)c(=O)c(C#N)c1C	-3	x

# The list goes on.
nr	mol	S aureus helic	MgrA DNA FP
31	O=c1c(Br)c(N2CCNCC2)cnn1-c1ccccc1	0	1.3
32	O=C1c2ccccc2S(=O)(=O)N1Cc1ccc2nsnc2c1	x	-1.5
33	O=C(CCn1c(SCc2cccc(F)c2)nc2cc3c(cc2c1=O)OCO3)NCc1ccc2c(c1)OCO2	14	x
34	COc1ccccc1CNc1n[nH]c(=S)s1	x	6.2
35	O=C(NC1CCCCCC1)[C@@H]1CCCN1S(=O)(=O)c1ccc2c(c1)OCCO2	-8	x
36	O=C(Nc1ccccc1Sc1ncnc2sc3c(c12)CCCC3)c1cccs1	-14	0.2
37	O=C(CSc1ncnc2nc[nH]c12)N1CCN(c2ccccc2)CC1	13	x
38	Cc1nc(N(c2ccccc2)c2ccccc2)sc1C	9	x
39	N#CC1=C(N)N(N2CCOCC2)C2=C(C(=O)CC(c3ccccc3)C2)C1c1ccccc1Cl (stereo not drawn)	9	1.6
40	O=C(O)C1CC1c1ccccc1 (stereo not drawn)	20	-4.3
41	Cc1c(-c2ccccc2)nc(N)c(C#N)c1-c1ccco1	5	x
42	O=C1CSC(=S)N1c1cccc(O)c1	-27	x
43	O=C(Nc1ccccc1)c1cc2c(=O)n3ccccc3nc2s1	-17	3.5
44	CCOC(=O)CSc1nc(-c2ccccc2)c(C#N)c(=O)[nH]1	-26	x
45	O=C(O)C1COc2ccccc2O1 (stereo not drawn)	3	-1.7
46	CCOC(=O)C1CCN(S(=O)(=O)c2sc(Cl)cc2Br)CC1	x	-0.1
47	CCc1ccc(NC(=O)CSc2nncn2C)cc1	5	-2.8
48	CCOC(=O)c1ccc(-n2c(=S)sc3c(=O)[nH]c(C)nc32)cc1	18	x
49	CC(=O)N1CCN(Cc2nc3ccc(NC(=O)Cn4nc(C)c5ccccc5c4=O)cc3n2C)CC1	1	x
50	N#CCSc1nc2ccccc2c(=O)n1CC1CCCC1	18	4.2
51	CCC(C#N)C12CC3CC(CC(C3)C1)C2 (stereo not drawn)	7	-1.8
52	CCCOC(=O)c1c(N)sc2c1CCCC2	1	-3.8
53	CCOC(=O)c1ccc(NC(=S)NCCn2cc(Br)cn2)cc1	7	-1.5
54	Cc1ccc2[nH]c(-c3ccccc3)c(CN3CCC(C)CC3)c(=O)c2c1	-26	x
55	COc1ccccc1N1CC(C(=O)OCn2nnc3ccccc3c2=O)CC1=O (stereo not drawn)	7	x
56	COc1ccc(-c2noc(NC3CCCc4ccccc43)n2)cc1 (stereo not drawn)	-14	x
57	CNC(=O)CN(C#N)c1nc(N(C)C)nc(N(C)C)n1	-1	0.5
58	COc1cccc(C(=O)Nc2ccc(-c3csc(C)n3)cc2)c1	-20	x
59	c1cc(CNC2CCCC2)ccn1	7	0.2
60	Cc1nc(N2CC(O)CC2C(N)=O)c2c(-c3ccccc3)csc2n1 (stereo not drawn)	0	x

# Additional entries:
nr	mol	S aureus helic	MgrA DNA FP
61	CC(C)NC(=O)c1cc2c(s1)CS(=O)(=O)C2	-21	x
62	CC(=O)Nc1nonc1-c1nc2ccccc2n1Cc1ccccn1	-1	-1.4
63	CC1(C)CC(=O)C=C(SCC(=O)Nc2ccccc2Cl)S1	x	-2.1
64	CN1/C(=C\C=C(/C#N)c2nc3ccccc3[nH]2)C(C)(C)c2ccccc21	i	-12
65	O=C(O)CCc1ccc(S(=O)(=O)Nc2cc(C(F)(F)F)ccc2N2CCCC2)cc1	8	x
66	CCOC(=O)c1c(NC(=S)N2CCc3ccccc32)sc2c1CCN(C(=O)OCC)C2	x	4.8
67	O=P1(NCc2ccco2)C=C(c2ccccc2)OC(c2ccccc2)=C1	2	x
68	CC(C)N1CC2(c3ccccc31)N1CC3(C)CN2CC(C)(C1)C3=O (stereo not drawn)	7	-12
69	CCN1C(=O)/C(=C2/SC(c3ccccc3)=C3N=CC(C)=CN32)SC1=S	9	x
70	CC1=C(C#N)C(=O)N(CCc2ccccc2)C(=O)/C1=C/c1ccc(-c2ccc3c(c2)COC3=O)o1	-6	x
71	COc1cc(CN(C(=S)NCC(=O)N2CCCC2)C2CCCC2)cc(OC)c1OC	9	-0.7
72	OCc1nc(-c2cc(C(F)(F)F)cc(C(F)(F)F)c2)cs1	x	-1.5
73	COc1cccc(NC(=S)N(C2CCCCC2)C(C)c2ccco2)c1 (stereo not drawn)	0	x
74	O=C(O)CSc1nc2c(n1-c1ccccc1)CCCC2	7	x
75	O=c1c(Br)coc2ccccc12	x	-1.8
76	Cc1c(C(=O)c2ccc(OC(F)F)cc2)oc2ccc(F)cc12	-10	x
77	CCOC(=O)c1csc(-c2ccc(-c3csnn3)cc2)n1	7	x
78	O=C1C2C3C=CC(C3)C2C(=O)N1c1ccccc1 (stereo not drawn)	-5	2.3
79	Clc1nc(Nc2cccc3ccccc23)nc(N2CCOCC2)n1	x	0.6
80	NC(=O)c1cccc2cccc(I)c12	13	x
81	COC(=O)c1sc(-c2cccs2)cc1NS(=O)(=O)c1ccc(C)cc1	x	0.5
82	O=C(O)CCN1C(=O)/C(=C/c2ccc(-c3ccccc3Cl)o2)SC1=S	-21	x
83	CN1CCC(NC(=S)NC2CC2)CC1	18	2.8
84	CN(C)C(=O)c1cc2c(=O)n3ccccc3nc2n1C	-4	1.4
85	Cc1cc(=O)n2[nH]c(CC(=O)O)nc2n1	4	16
86	CC(C)S(=O)(=O)/C(C#N)=C/c1ccccc1OC(F)(F)F	x	1.2
87	COc1cc(/C=C2/SC(=S)N(NC(C)=O)C2=O)ccc1O	-6	-1.6
88	N#Cc1ccc(CSc2nnc(-c3cccc(S(=O)(=O)N4CCCCC4)c3)n2-c2ccccc2)cc1	7	x
89	N#CC1=C(SCC(N)=O)NC2=C(C(=O)CCC2)C1c1ccc2c(c1)OCO2 (stereo not drawn)	-1	x
90	FC(F)(F)c1cc(Oc2ccccc2)nc(-c2ccccn2)n1	x	0.5

# Further structures follow.
# The line under a structure holds: S aureus helic, MgrA DNA FP
91: O=C(Cn1ncn2cccc2c1=O)N1CCCCC1
    8, -2.5
92: COc1cc(OC)c(C2C3=C(CC(C)(C)CC3=O)Nc3nc4ccccc4n32)cc1OC (stereo not drawn)
    -3, 1.4
93: Cc1cc(C)n2ncc(C(=O)NCCC(C)C)c2n1
    -13, x
94: CCOC(=O)c1cnc2c(c(C)nn2C)c1Sc1ccccn1
    x, 5.3
95: CCCCCn1c(=O)c2ccccc2n2c(Cn3nnc4ccccc4c3=O)nnc12
    2, x
96: Cc1noc(C)c1CSc1nnc(Nc2ccccc2)s1
    -11, x
97: O=C(NO)C1CC2C=CC1C2 (stereo not drawn)
    -18, 0.9
98: COc1ccc(OC(=O)c2cncc(C#Cc3ccccc3)c2)cc1
    x, -2.2
99: Cc1cc(=O)oc2cc(OCc3ccc4c(c3)OCO4)ccc12
    -4, -1.6
100: COCCOC(=O)C1=C(N)OC2=C(C(=O)CC(C)(C)C2)C1c1cccnc1 (stereo not drawn)
    x, -0.3
101: CCOc1ncccc1C(=O)NCc1ccc(OC)cc1
    x, -3.0
102: O=c1c2ccccc2nc2c3ccccc3c(NCc3ccco3)nn12
    10, x
103: CNC(=O)CCC(=O)N1Cc2ccccc2Oc2ncccc21
    7, x
104: Nc1ccc2c(c1)ncn2CCO
    5, -3.5
105: NC(=O)C1=CNCCC1C(F)(F)F (stereo not drawn)
    x, 2.6
106: Cn1c(=O)c(C(CC(=O)c2cc3ccccc3oc2=O)Nc2ccccc2)c(O)c2ccccc21 (stereo not drawn)
    12, -0.4
107: COc1ccc(OCC(O)CNC(=O)C2CCN(c3nccc(C(F)(F)F)n3)CC2)cc1 (stereo not drawn)
    11, x
108: O=C(O)/C=C/C(=O)NCc1cccs1
    x, -0.5
109: O=C(C[n+]1ccc(/C=N/O)cc1)NC1CCCCC1
    1, 1.8
110: O=C(CSc1nnc(Cc2cccs2)n1C1CC1)Nc1ccc2c(c1)OCO2
    1, x

# Next section:
# The line under a structure holds: S aureus helic, MgrA DNA FP
111: Cc1noc(C)c1S(=O)(=O)NN
    x, -1.8
112: COc1ccccc1CCC(=O)NCc1ccccc1
    -9, x
113: CN(CC(=O)NC(=O)Nc1ccc2c(c1)OCCO2)Cc1ccc2c(c1)OCCO2
    -11, x
114: O=C1S/C(=C/c2ccccc2)C(=O)N1CCOc1ccccc1
    -14, -0.8
115: O=C(NCc1ccco1)C(Sc1ccccc1)c1ccccc1 (stereo not drawn)
    2, 1.4
116: NC(=O)Cn1c(=O)cnc2ccccc21
    -1, x
117: O=S(=O)(c1cc(Cl)sc1Cl)N1CCCN(CCc2ccccc2)CC1
    x, -2.5
118: COc1ccccc1NC(=S)NCc1ccco1
    x, 2.8
119: CCn1c(C(C)O)nc2ccccc21 (stereo not drawn)
    -5, x
120: CCc1cc2c(=O)c(-c3nc4ccccc4[nH]3)c(C)oc2cc1OC(C)=O
    0, x
121: Cc1[nH]c2ccccc2c1SCc1nnc(SCC(=O)Nc2ccccc2)n1C
    x, -4.2
122: CCCCNC(=O)C1CCC(=O)N(c2ccc(OC)cc2)C1c1ccc(OC)cc1 (stereo not drawn)
    48, x
123: N#CC(C(=O)c1cc(=O)c2cc(Cl)ccc2o1)c1ccccn1 (stereo not drawn)
    5, x
124: CCOc1cc(C=C2C(=O)N(C)C(=O)N(C)C2=O)ccc1OCCOc1ccc([N+](=O)[O-])cc1
    x, -3.0
125: CC(C)(C)CC(=O)NCc1ccc(F)cc1
    4, -0.4
126: O=c1[nH]c2nonc2nc1Nc1ccccc1
    17, 3.4
127: COc1ccc2c(Cl)c(-c3nnc(SCC(N)=O)n3C)sc2c1
    21, x
128: CCC(Sc1nncn2c1cc1oc(C)cc12)C(=O)NCc1ccc(C)cc1 (stereo not drawn)
    -1, 0.5
129: CCc1nc(SC/C=C/c2ccccc2)c(C#N)cc1C
    7, -0.5
130: Cn1c(Cc2nc(-c3cnccn3)no2)nnc1SCC(=O)Nc1ccc(Cl)cc1
    x, 1.1

# (more compounds)
# The line under a structure holds: S aureus helic, MgrA DNA FP
131: COc1ccc(C2(C(=O)NCCc3ccccc3)CCCC2)cc1OC
    4, 2.5
132: Cc1cc(C)n(-c2nc(-c3cccnc3)nc3ccccc23)n1
    -13, x
133: COC(=O)c1ccc(C)cc1
    -10, x
134: Cc1ccc(C(=O)Nc2ccccc2C(=O)NCc2ccco2)cc1
    -11, x
135: CCC(C)C(C(=O)Nc1ccc(F)cc1)N1Cc2ccccc2C1=O (stereo not drawn)
    8, x
136: NS(=O)(=O)c1ccc(CNC(=O)c2ccco2)cc1
    14, x
